Calb biofilm kill – mixture kills Candida albicans biofilm cells | inhibition, % at 7.6 µM | AID 1242 | C. albicans biofilm persisters + clotrimazole, fluorescence viability; primary screen in compound mixtures of four per well | hit rate 0.02% among 120,000;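 active means inhibition above 30.3% in the primary screen of four-compound pools, then above 30% when the compound was retested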;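 further: compounds exposed to preformed 24 h biofilms for 48 h; the number belongs to the whole pool; some results filed as inactive read as strong as hits; inactives centre near 12; 0% = biofilm with clotrimazole alone and 100% = kill control; retested singly at about 60 µM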
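Probe or stimulus – Clotrimazole 50 µg/mL co-treatment · System – C. albicans biofilms · Schedule – 24 h biofilm formation, then 48 h compound exposure, 37 °C · Evaluation – percent inhibition of biofilm viability · Technique – 2-h Alamar Blue fluorescence, 535/590 nm excitation/emission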
Numbers without * were called inactive. Not all compounds are listed; count on the stated rates, not on these rows.

item	SMILES	Calb biofilm kill
1	C/C(N)=C(/C#N)C(=O)CSc1nnc(Nc2cccc(C)c2)s1	16
2	CC(=O)Nc1cc2cc(NS(=O)(=O)c3ccc(C)cc3)ccc2oc1=O	16
3	Oc1cccc(C(O)CNCc2ccc(-c3ccccc3)cc2)c1 (stereo not drawn)	11
4	COc1cccc(NC(=S)N(Cc2ccc(C)cc2)Cc2ccccn2)c1	13
5	Cc1cc(C)n2nc(C(=O)N3CCN(Cc4ccc5c(c4)OCO5)CC3)nc2n1	-2
6	Cc1ccc(-c2cnco2)cc1	20
7	COc1cccc(CNc2nc(SC)ncc2CO)c1	5
8	Cc1[nH]n(-c2ccccc2)c(=O)c1/C=N/N(C)c1ccccc1	10
9	CC(C)/C=N/NC(=O)c1ccc(Cl)cc1	15
10	O=C1CN(C(=O)CSc2nc3ccccc3c(=O)n2CC2CCCO2)c2ccccc2N1 (stereo not drawn)	6
11	Oc1ccccc1/C=N/[n+]1ccccc1	-1
12	Cc1ccc(NC(=O)c2ccccc2NC(=O)Cc2ccccc2)cc1	10
13	O=S(=O)(c1cnc(Cl)c(Br)c1)N1CCCCCC1	16
14	Cc1ccc(-n2c(-c3ccco3)nc3nc4ccccc4nc32)cc1	10
15	CNc1nc(-c2cccs2)cc(C(F)(F)F)c1C#N	24
16	CC(=O)Nc1cccc(NC(=O)CSc2nnnn2-c2ccc3c(c2)OCO3)c1	24
17	c1ccc2c(c1)OC(CCCN1CCCCC1)c1ccccc1S2 (stereo not drawn)	11
18	CCCC(CCC)C(=O)NC1CCN(Cc2ccccc2)CC1	-1
19	CC(C)C(=O)N=c1sc2cccc(F)c2n1C	28
20	CCNC(=O)c1ccc2c(c1)C1C3CCC(C3)C1C(c1ccccc1)N2 (stereo not drawn)	8
21	Cc1ccc(C)c(SCC(=O)Nc2cccnc2Cl)c1	14
22	Cc1cc(C)nc(-n2cc(C(=O)c3cc(F)ccc3O)cn2)n1	16
23	CCOc1cc(/C=C/c2ccc3cccc([N+](=O)[O-])c3n2)ccc1OCC(=O)N(C)C	-2
24	CN1C(C(=O)c2ccccc2)=C(N)c2ccccc2S1(=O)=O	16
25	N=C1C(c2nc3ccccc3[nH]2)=C(O)CN1C1CCCCC1	24

Screen by screen, from the results shown:
Calb biofilm kill, entries 14 to 20: 10, 24, 24, 11, -1, 28, 8

Additional results follow.
item	SMILES	Calb biofilm kill
26	O=C(CCCOc1ccc(Cl)cc1Cl)Nc1ccccc1C(=O)O	27
27	O=C(NCc1ccc(Cl)cc1Cl)c1ccc2nc[nH]c2c1	13
28	COc1ccccc1NC(=O)COc1ccc(C(=O)NC2CCCc3ccccc32)cc1OC (stereo not drawn)	1
29	CN(C)CCCOc1ccc2c(c1)Sc1ccccc1CC2=O	10
30	CCNc1ccc(C(=O)OCC(=O)c2cc(C)n(Cc3ccc4c(c3)OCO4)c2C)cc1[N+](=O)[O-]	4
31	CC(=O)Nc1ccc(S(=O)(=O)Oc2cccc(/C=C3\SC(N)=NC3=O)c2)cc1	-1
32	OCC1(CCc2ccccc2)CCN(Cc2cc(F)ccc2-n2cccn2)CC1	22
33	CC(C)(C)Cc1nnc(NC(=O)c2ccc([N+](=O)[O-])cc2)s1	10
34	Cc1ccc(NC(=O)CN2C(=O)S/C(=C\c3ccccn3)C2=O)cc1	2
35	COc1cc(/C=N/n2c(C)n[nH]c2=S)ccc1OCc1ccc(F)cc1	22
36	CCOC(=O)Cn1cc(/C=C(\C#N)C(=O)N2CCOCC2)c2ccccc21	21
37	O=S(=O)(Cc1ccccc1)Nc1ccc(Br)cn1	23
38	S=c1nc(-c2csc3c2CCCC3)[nH][nH]1	18
39	OCCN(CCO)c1nc(-c2ccccc2)nc2c1oc1ccccc12	24
40	COc1ccccc1OCC(=O)Nc1ccc(N2CCCCC2)cc1	15
41	C=CCN(CC=C)C(=O)c1cccc(S(=O)(=O)N2c3ccccc3CC2C)c1 (stereo not drawn)	19
42	CCN1CCN(c2oc(/C=C/c3ccccc3)nc2C#N)CC1	6
43	Cc1cc2c(C)nc3ccccc3c2o1	11
44	CC(=O)c1cccc(NC(=O)CN2C(=S)NC(C)(C)CC2C)c1 (stereo not drawn)	16
45	CCn1cc(C(=O)O)c(=O)c2cc3c(cc21)OCO3	13
46	Cc1cc(C(=O)N/N=C2\CC(=O)c3ccccc32)c(C)n1-c1ccc(F)cc1	30
47	COc1ccc(C(=O)COC(=O)CCC(=O)c2cccs2)cc1	12
48	CCCC(c1nnnn1Cc1cccs1)N1CCN(C)CC1 (stereo not drawn)	7
49	Fc1cc2[nH]c(=S)[nH]c2cc1Cl	13
50	CCn1c(SCC(=O)c2ccccc2)nc2ccccc2c1=O	14

Some of these compounds in order of molecular weight, low to high:
item	SMILES	Calb biofilm kill
48	CCCC(c1nnnn1Cc1cccs1)N1CCN(C)CC1 (stereo not drawn)	7
37	O=S(=O)(Cc1ccccc1)Nc1ccc(Br)cn1	23
40	COc1ccccc1OCC(=O)Nc1ccc(N2CCCCC2)cc1	15
36	CCOC(=O)Cn1cc(/C=C(\C#N)C(=O)N2CCOCC2)c2ccccc21	21
46	Cc1cc(C(=O)N/N=C2\CC(=O)c3ccccc32)c(C)n1-c1ccc(F)cc1	30

The listing continues:
item	SMILES	Calb biofilm kill
51	C#CCOCCOCCOCCNc1nc(N2CCN(C(=O)[C@H]([C@@H](C)CC)n3cc([C@@H](N)CO)nn3)CC2)nc(N2CCN(C(=O)[C@H]([C@@H](C)CC)n3cc([C@@H](N)CO)nn3)CC2)n1	1
52	Cc1cc(C)c(NC(=S)N2CCCC2C(=O)O)c(C)c1 (stereo not drawn)	12
53	COC(=O)[C@@H]1C[C@@]2(O)[C@H](O)[C@H](O)[C@H](O)C[C@H]2N1Cc1cc(F)ccc1F	13
54	CN(c1ccccc1)S(=O)(=O)c1cccc(NC(=O)c2cc(=O)c3ccccc3o2)c1	18
55	S=C(NCc1ccc(Cl)cc1Cl)Nc1ccccc1	21
56	CCOC(=O)CCC(=O)O[C@H]1[C@H](O[C@@H]2[C@@H](C)[C@H](O[C@H]3C[C@@](C)(OC)[C@@H](O)[C@H](C)O3)[C@@H](C)C(=O)O[C@H](CC)[C@@](C)(O)[C@H](O)[C@@H](C)C(=O)[C@H](C)C[C@@]2(C)O)O[C@H](C)C[C@@H]1N(C)C	-5
57	CCc1nnc(NC(=O)CSc2nnc(-c3ccco3)n2CCOC)s1	14
58	COc1ccc(Oc2cccc(Cl)c2CNC(=O)CSCC(=O)O)cc1	28
59	COCCn1c(SCC(=O)/C=C2\N(C)c3ccccc3C2(C)C)nnc1-c1ccncc1	8
60	Nc1nonc1-c1nc2ccccc2n1CC(=O)N/N=C/c1ccc(-c2ccccc2C(=O)O)o1	-4
61	Cc1cc(C)cc(NC(=O)CSc2nc(N)c(NC(=O)c3cccs3)c(=O)[nH]2)c1	12
62	O=C(CN(Cc1ccccc1)S(=O)(=O)c1ccc(S(=O)(=O)N2CCOCC2)cc1)Nc1ccccc1	26
63	Cc1ccc(F)cc1NC(=O)CSc1ncccn1	-2
64	OC1NC(=S)N(c2ccccc2)C1O (stereo not drawn)	15
65	Cc1cc(C)n2nc(SCCCC(=O)c3ccc(F)cc3)nc2n1	13
66	CCOC(=O)c1c(C)[nH]c(C)c1C(=O)COC(=O)c1nc2nccc(C)n2n1	4
67	O=C(N/N=C/c1c(Nc2cccc(C(F)(F)F)c2)nc2ccccn2c1=O)c1ccccc1[N+](=O)[O-]	9
68	COc1ccccc1S(=O)(=O)Nc1ccc2cn[nH]c2c1	6
69	Cc1ccc(-c2nc(SCC(=O)NCC3CCCO3)c(-c3ccc(Cl)cc3)[nH]2)cc1 (stereo not drawn)	19
70	CCOc1ccc(C(CC(=O)O)n2cnnn2)cc1OC (stereo not drawn)	14
71	CCOc1ccc(CN2CCN(Cc3ccsc3)C(CCO)C2)cc1CO (stereo not drawn)	6
72	COc1ccc(NC(=S)NNC(=S)Nc2cccc(C(F)(F)F)c2)cc1	22
73	O=C(NCCCN1CCOCC1)C(=O)NCc1ccccc1Cl	23
74	O=C(NCCCn1ccnc1)C(=O)NCC(c1cccnc1)N1CCN(c2ccccc2)CC1 (stereo not drawn)	15
75	COc1ccccc1C1(CCN=Cc2ccc(N(C)C)cc2)CCOC(C)(C)C1 (stereo not drawn)	24
76	COC(C[C@H]1O[C@@H]1[C@H](O)COCc1ccccc1)OC	11
77	O=C(Cn1cnc2ccccc2c1=O)Nc1nc2ccccc2s1	17
78	O=c1[nH]c(=O)n(C(c2ccccc2)c2ccccc2)cc1Br	10
79	Cc1ccc(S(=O)(=O)N(c2cccc(C(F)(F)F)c2)C2C=CS(=O)(=O)C2)cc1 (stereo not drawn)	-9
80	CC1CCCN(c2nc3nonc3nc2N2CCCC(C)C2)C1 (stereo not drawn)	16
81	O=c1[nH]c2ccccc2c2nc(-c3cccc(S(=O)(=O)N4CCCC4)c3)nn12	23
82	C/C(=N\OC(=O)c1ccc(F)cc1)c1ccc(F)c(F)c1	13
83	Cc1nc(N2CCN(C(=O)c3ccco3)CC2)c2c3c(sc2n1)CCCC3	11
84	Cc1nnc(NC(=O)CSc2nc(N)c(NC(=O)c3cccs3)c(=O)[nH]2)s1	18
85	CC1CC2c3cccc(C(=O)O)c3C(=O)N2c2ccc(Cl)cc21 (stereo not drawn)	9
86	CC(=O)c1cccc(NC(=O)CN(C)S(=O)(=O)c2ccccc2)c1	19
87	Cc1cccc(N2C(=O)C(O)=C(C(=O)c3cccs3)C2c2ccc(F)cc2)n1 (stereo not drawn)	22
88	Cc1ccc2sc(C)[n+](CCC(C)S(=O)(=O)[O-])c2c1 (stereo not drawn)	16
89	COCCN(CCOC)CC(O)COC(c1ccccc1)c1ccccc1 (stereo not drawn)	9
90	CC1(C)CN(c2ccsc2C(=O)O)C1=O	15
91	CN(Cc1ccccc1)CC(O)COc1ccc(CNCCOc2cccnc2)cc1 (stereo not drawn)	16
92	Cc1nc(CC(=O)c2ccc(O)c(C)c2O)cs1	27
93	Cc1cc(-n2cnc(-c3cn[nH]c3C)n2)no1	12
94	C/C(=N\NC(=O)c1ccccc1)c1ccc(C)c([N+](=O)[O-])c1	17
95	CC(C)c1ccc(C(O)Cc2nc3ccccc3n2C)cc1 (stereo not drawn)	24
96	CCc1ccc(N(C(=O)c2ccco2)C(C(=O)NC2CCCC2)c2ccco2)cc1 (stereo not drawn)	13
97	O=C(Cc1sc(Nc2ccccc2)nc1-c1ccccc1)NCc1ccccc1	10
98	Cc1ccc(N2C(=O)c3ccc(C(=O)N4CCN(c5ccc(C)c(C)c5)CC4)cc3C2=O)cc1	19
99	O=C(CNC(=S)N(Cc1ccccc1Cl)C1CCCC1)NCCN1CCOCC1	17
100	C[C@H](NC(=O)c1nc[nH]c1C(=O)N1CCc2ccccc2C1)C(=O)OC(C)(C)C	3

Reformatted: results already given.
#77 O=C(Cn1cnc2ccccc2c1=O)Nc1nc2ccccc2s1
- Calb biofilm kill: 17

#78 O=c1[nH]c(=O)n(C(c2ccccc2)c2ccccc2)cc1Br
- Calb biofilm kill: 10

Remaining list, next part:
item	SMILES	Calb biofilm kill
101	O=C(CSc1nc2c(cnn2-c2ccccc2)c(=O)[nH]1)N1N=C(c2cccs2)CC1c1ccc(F)cc1 (stereo not drawn)	8
102	Nc1ccc2nc(C(F)(F)F)[nH]c2c1	28
103	CN(CC(=O)Nc1ccccc1N1CCOCC1)CC(=O)Nc1ccc(F)c(F)c1F	2
104	CN(C)S(=O)(=O)c1cccc(NC(=O)COC(=O)CNC(=O)c2cccc([N+](=O)[O-])c2)c1	20
105	Cc1[nH]n(-c2ccccc2)c(=O)c1C=Nc1ccc(S(=O)(=O)N=C(N)N)cc1	13
106	CCC(=O)Nc1cccc(C(=O)OCc2cccc([N+](=O)[O-])c2)c1	7
107	O=C(CSc1cccc2cccnc12)N/N=C/c1cccnc1	6
108	O=[N+]([O-])c1ccc(/C=N/n2cnc3ccccc32)s1	6
109	CN(C)CCCN(C(=O)c1cc2ccccc2oc1=O)c1nc2ccc(F)cc2s1	17
110	CC(OC(=O)c1ccccc1O)C(=O)Nc1cccc(Cl)c1 (stereo not drawn)	9
111	O=C(CNC1CCCC1)Nc1ccc(N2CCCCCC2)cc1	9
112	Cc1cc(NC(=O)CC#N)n(-c2nc3ccccc3[nH]2)n1	9
113	O=C(O)CCCC(=O)Nc1cccc([N+](=O)[O-])c1	-9
114	Cc1nn(-c2ccccc2)c(N)c1C(O)(CC(=O)C(F)(F)F)C(F)(F)F (stereo not drawn)	12
115	FC(F)(F)c1ccnc(Sc2n[nH]c(C(F)(F)F)n2)c1	23
116	COC(=O)c1cc2ccccc2c(-c2c(O)ccc3ccccc23)c1O	-16
117	CCCCCCCOc1ccc(-c2ccc(C#N)cn2)cc1	4
118	O=C1NN(c2ccc(F)cc2)C(=O)/C1=C/c1cccs1	30
119	O=C(O)CCn1c(-c2ccccc2)cc2ccccc21	24
120	COCCN(C(=S)Nc1cc(C)cc(C)c1)C(C)c1cccnc1 (stereo not drawn)	19
121	Cc1ccc(CCNC(=O)C2CCN(S(=O)(=O)c3cccc4nsnc34)CC2)cc1	20
122	CCOC(=O)c1c(/N=C/N(C)C)sc(C=O)c1-c1ccccc1	15
123	Cc1sc2nc(COC(=O)c3cccc(OC(F)F)c3)[nH]c(=O)c2c1C	-7
124	Nc1nn2cc(-c3ccccc3)nc2c2ccccc12	13
125	N#C/C(=C\c1ccc([N+](=O)[O-])cc1)C(=O)Nc1ccccc1O	17
126	O=C(CSc1nnc2ccccn12)Nc1ccc2c(c1)OCCO2	12
127	Cc1ccc(NC(=O)CCC(=O)N/N=C/C=C/c2ccccc2)cc1	14
128	COc1cc(O)c2c(=O)c3c(OC)c(O)ccc3oc2c1	9
129	COc1ccc(C(=O)N/C(=C\c2ccc3c(c2)OCO3)C(=O)Nc2ccc(C(=O)O)cc2)cc1	29
130	Cc1c(CCO)c(=O)[nH]n1S(=O)(=O)c1ccccc1	12

Screening results as filed in PubChem.
